High-throughput results (PubChem BioAssay)
GLA inh pH 4.5: qHTS Assay for Inhibitors of Human alpha-Galactosidase at pH 4.5 | 230,000 tested, under 10 active | purified enzyme, 4-MU-alpha-Gal fluorescence, pH 4.5 | activity change, negative = inhibition, % at 105 µM | AID 1467, 2008 | Alpha-galactosidase A (Homo sapiens), P06280; inconclusive = small, poorly fitted or top-dose-only inhibition, or a rising curve; inactive = flat fitted curve, though single readings scatter; no compound was filed as active;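 also: 0% = full activity with enzyme and -100% = basal without enzyme; dose as in the result columns while the protocol names 77 µM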
Target sequence (P06280 whole entry, looked up): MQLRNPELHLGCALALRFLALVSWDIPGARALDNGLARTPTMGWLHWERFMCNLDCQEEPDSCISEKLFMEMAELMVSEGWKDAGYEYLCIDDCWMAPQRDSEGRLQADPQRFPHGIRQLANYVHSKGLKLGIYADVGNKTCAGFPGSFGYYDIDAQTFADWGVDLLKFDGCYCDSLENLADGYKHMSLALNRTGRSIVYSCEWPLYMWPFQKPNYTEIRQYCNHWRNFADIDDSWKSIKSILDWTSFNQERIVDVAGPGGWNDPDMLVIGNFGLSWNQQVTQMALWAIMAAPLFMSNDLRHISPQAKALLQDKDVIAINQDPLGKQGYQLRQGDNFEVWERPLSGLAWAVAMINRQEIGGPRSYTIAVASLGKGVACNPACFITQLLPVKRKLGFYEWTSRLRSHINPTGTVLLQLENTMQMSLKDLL
Rango dissoc inh: qHTS Assay for Inhibitors of RanGTP induced Rango (Ran-regulated importin-beta cargo) - Importin beta complex dissociation; Snurportin-1 (Homo sapiens) + GTP-binding nuclear protein Ran (Homo sapiens) + Importin …; Biochemical FRET Rango-importin beta, RanGTP-induced dissociation; Potency, µM (doses to about 46.1 µM), without a hit: top-dose activity change, negative = inhibition; hit rate 0.071% among 340,000; AID 540253, 2011; active means falling FRET ratio curve, often poorly fitted, with flat reads before Ran was added; inconclusive means other falling curves, or compound fluorescence or quenching; inactive means flat or rising ratio curve;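 also: potency is read from the fitted curve at half-maximal effect; % of control where 0% means no effect; nearly all actives have a fitted effect of over 45% in size; -100% = wells without RanGTP and RCC1; the record marks most hits as doubtful in a second field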
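Rango (0.1 uM)–importin beta (0.25 uM) complex; RanGTP-RCC1 trigger; 45 min RT; CFP/YFP FRET read.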
Rango complex inh: qHTS Assay for Inhibitors of Rango (Ran-regulated importin-beta cargo) - Importin beta complex formation; Importin subunit beta-1 (Homo sapiens), Q14974; Rango CFP/YFP FRET sensor + importin beta, 45 min; Potency, µM (highest dose often 92.2 µM), for the others: top-dose inhibition of complex formation; hit rate 0.031% among 340,000; AID 540263, 2011; active = rising FRET ratio curve, often small or poorly fitted; inconclusive = mostly compound fluorescence or quenching in the first reads; inactive = flat curves in all reads;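 also: potency is read from the fitted curve at half-maximal effect; 0% = DMSO wells and 100% = buffer wells lacking importin beta; nearly all actives have a fitted effect of over 15% in size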
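FRET biosensor (snurportin 1 IBB flanked by EYFP and cerulean), 50 nM, with compound 5 min, then 0.125 microM importin beta in PBS, 1 mM DTT, 0.02% Tween-20, 0.1% BSA. CFP/YFP ratio read after 45 min at room temperature; pre-read flags interference.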
miR-21 reporter: qHTS Assay for Modulators of miRNAs and/orActivators of miR-21 | HeLa miR-21 FLuc reporter, luciferase, 48 h | Potency, µM (doses to about 38.3 µM), inactives show at the highest dose reporter change, positive = more light | 340,000 tested, under 10 active; active = well fitted rising curve with a large enough effect; inconclusive = small, poorly fitted or top-dose-only effect; inactive = no such curve, though single readings can be large or run the other way;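 also: % of control where 0% means no effect; miR-21 action dims this reporter so a rising signal means less miR-21 action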
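HeLa cells stably expressing CMV-driven firefly luciferase with a downstream miR-21 binding sequence, endogenously expressing miR-21, were treated with titrations (up to about 40uM final) for 48 hours at 37 degree Celsius. Luciferase luminescence was read after lysis.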
Numbers without * were called inactive; ? = inconclusive; / = not tested or not shown. The list is partial. The share of hits here may be higher or lower than overall.

Values run as follows: GLA inh pH 4.5	Rango dissoc inh	Rango complex inh	miR-21 reporter
> NS(=O)(=O)c1ccc(NC(=O)COC(=O)COc2cccc(C(F)(F)F)c2)cc1
    -6	6%	1.5%	-7%
> CCOc1ccc(N2C(=O)/C(=C/c3cc(OC)c(OC)c(OC)c3)N(CC(=O)OC)C2=S)cc1
    3	?	?	0%
> COc1cc(C(C[N+](=O)[O-])c2c(N)n(C)c(=O)n(C)c2=O)ccc1O (stereo unspecified)
    -2	-1%	3.6%	24%
> CNC(=S)N/N=C(\C)c1ccccc1
    -4	-2%	0.5%	-3%
> COC(=O)C1=C(C)N(C)C(=O)NC1c1ccsc1 (stereo unspecified)
    9	-16%	-4.1%	2%
> COc1ccc(-c2cc(C(=O)N(C)Cc3ccccc3)no2)cc1OC
    -6	8%	-0.1%	-27%
> CCc1ccccc1NC(=O)CSc1nnc([C@@H](NC(=O)OC(C)(C)C)C(C)CC)o1 (stereo partly specified)
    -1	-6%	-1.5%	2%
> O=S1(=O)CCN(Cc2cccc(Cl)c2)CC1
    1	12%	-4.7%	0%
> COc1ccc(CNC(=O)c2cccc(N(C)C)c2)cc1
    -1	-10%	5.1%	-11%
> O=C1CCCC2=C1C(c1ccccc1)NC(=S)N2 (stereo unspecified)
    5	-13%	-3.1%	18%
> Cc1csc(=O)n1CCC(=O)OCC(=O)Nc1cccc(C#N)c1
    /	0%	0.6%	/
> COc1ccc(CCCc2nc3ccccc3[nH]2)cc1
    -5	15%	1.3%	-20%
> Nc1nnc(-c2ccco2)s1
    5	-4%	-3.0%	2%
> CN1CCN(c2nc3c(c(=O)[nH]c(=O)n3C)n2Cc2cccc(Br)c2)CC1
    /	-11%	-0.4%	1%
> O=C(Nc1ccc(OC(F)F)cc1)c1cc[n+]([O-])cc1
    /	1%	0.2%	6%
> CCOC(=O)c1csc(COc2ccc(OC)cc2)n1
    1	-8%	2.4%	-50%
> COc1cc(-c2nnc(SC/C=C/c3ccccc3)n2N)cc(OC)c1OC
    0	5%	0.2%	16%
> CC1(C)CC(=O)C(=Cc2cn(-c3ccccc3)nc2-c2ccccc2)C(=O)C1
    /	4%	0.3%	/
> Cc1cc(C(=O)Nc2sc3c(c2C#N)CCC(C)C3)cs1 (stereo unspecified)
    0	1%	0.2%	-67%
> ON(CCc1ccncc1)Cc1ccccc1
    /	?	?	/

Following part:
Values run as follows: GLA inh pH 4.5	Rango dissoc inh	Rango complex inh	miR-21 reporter
> O=c1nc2n(c3ncccc13)CCC2
    1	5%	-1.3%	0%
> C/C(=N\NS(=O)(=O)c1cccc([N+](=O)[O-])c1)c1cccnc1
    6	-1%	3.6%	-1%
> COc1cccc(/C=N/NC(=O)CC(C)O)c1OC/C=C/c1ccccc1 (stereo unspecified)
    /	-4%	1.1%	14%
> O=C(CNC(=O)c1ccco1)NCC(=O)OCc1ccccc1Cl
    /	0%	1.6%	0%
> CC(C)[C@H](NC(=O)c1ccccc1)C(=O)OCC(=O)NCc1ccc2c(c1)OCO2
    /	8%	3.0%	/
> CCOC(=O)c1ccc(N2NC(=O)/C(=C/c3ccc(OC(=O)c4ccco4)c(OC)c3)C2=O)cc1
    -18	/	/	-4%
> COC(=O)c1ccc(CN2CCC(CO)(CCOc3ccccc3)CC2)cc1
    /	15%	1.1%	0%
> Cc1ccc(N(CC(=O)Nc2ccc3c(c2)OCCO3)S(C)(=O)=O)cc1
    4	6%	2.2%	-63%
> CC1Nc2ccccc2C(=O)N1NS(=O)(=O)c1ccccc1 (stereo unspecified)
    2	-3%	-7.2%	-12%
> COc1cccc(/C=C/C(=O)NNC(=O)c2ccncc2)c1OC
    /	-7%	-0.8%	/
> CC(=O)c1c[nH]c(C(=O)NCc2cccc(C(F)(F)F)c2)c1
    /	9%	-0.6%	0%
> CCc1nnc(NS(=O)(=O)c2ccc(NC(=O)Nc3ccc(OC)cc3)cc2)s1
    /	-5%	0.6%	1%
> COc1ccccc1C(=O)NC(=O)COC(=O)CCS(=O)(=O)c1ccc(C)cc1
    /	2%	-0.2%	/
> O=C(CCCCC(=O)Nc1ccc(F)cc1F)Nc1ccc(F)cc1F
    /	-7%	9.6%	/
> Clc1ccc(Cn2cccn2)cn1
    -2	1%	-1.9%	-1%
> CC(=O)Nc1cc(Br)ccc1O
    9	-12%	0.5%	1%
> Fc1ccc(/C=N/NC(=S)Nc2cccnc2)cc1F
    7	-15%	3.1%	-20%
> Clc1ccc(N/N=C/c2ccncc2)cc1Cl
    -7	21%	-0.6%	-69%
> O=C(N/N=C/C=C/c1ccccc1)c1ccc(Br)cc1
    3	1%	1.3%	-1%
> CCOC(=O)c1cccc(Nc2ncnc3ccccc23)c1
    -20	15%	-2.1%	-16%

(next part)
Values run as follows: GLA inh pH 4.5	Rango dissoc inh	Rango complex inh	miR-21 reporter
> Cc1nc(C(=O)N(C)C)nn1-c1ccc([N+](=O)[O-])cc1
    -24	-6%	8.5%	-7%
> N#CCCn1c(O)c(N=NC(=O)CNC(=O)c2cccs2)c2ccccc21
    -1	-2%	5.6%	-4%
> Cc1ccc2cc(C#N)c(N3CCCN(C(=O)c4cnccn4)CC3)nc2c1
    /	-23%	?	-11%
> COc1ccc(-c2cc3c(=O)n(CC(=O)NCCN4CCCC4)nc(C)n3n2)cc1
    /	-9%	?	-12%
> Cc1ccc(NC(=O)CSc2nnc(C3CC3)n2C)cc1S(=O)(=O)N1CCCCC1
    /	1%	-2.7%	/
> CCn1c(=O)c(=O)[nH]c2c(=O)oc3ccc(S(=O)(=O)Nc4ccc(OC)cc4)cc3c21
    /	0%	3.0%	0%
> O=C(COC(=O)c1cc(=O)[nH]c2ccccc12)NC1CCCCC1
    /	-2%	0.1%	/
> Cc1ccc(C)c(S(=O)(=O)NNC(=O)c2sc(NS(=O)(=O)c3ccccc3)nc2C)c1
    /	11%	0.1%	-3%
> CCC1CCCCN1CC(O)COCc1cccc(OC)c1 (stereo unspecified)
    /	20%	-1.2%	7%
> CCOc1cc(/C=C(\C#N)C(=O)NCC2CCCO2)ccc1OCC(N)=O (stereo unspecified)
    -24	-5%	3.8%	-1%
> CC(=O)c1cccc(NC(=O)CSc2nc(N3CCOCC3)nc(N3CCOCC3)n2)c1
    /	-3%	-0.8%	-4%
> COc1nc(Oc2ccc(/C=N/O)cc2)nc(N(C)C)n1
    5	-11%	1.8%	-28%
> O=C(Nc1nc2ccccc2s1)Nc1ccc([N+](=O)[O-])cc1Cl
    5	/	/	-2%
> COc1ccc(CCC(=O)OCC(=O)Nc2ccc(OC)c(OC)c2)cc1OC
    /	24%	2.2%	-3%
> O=C(c1ccco1)N1CCN(C(=O)c2cc(-c3ccccc3F)no2)CC1
    /	-3%	-4.5%	-53%
> CC(=O)c1ccc(O)c(CSc2nncn2C)c1
    -6	-1%	-9.5%	-2%
> COc1ccc(Cn2c(=S)[nH]c3ccccc3c2=O)cc1
    /	-11%	3.5%	-13%
> CC(C)(C)C(O)CN1CCCC1 (stereo unspecified)
    -5	4%	-1.7%	0%
> CC1CN(S(=O)(=O)c2ccc(-c3nc4ccccc4s3)cc2)CC(C)O1 (stereo unspecified)
    8	13%	-3.3%	-5%
> CC(Sc1nnc(C2CC2)n1Cc1ccccc1)C(=O)N1CCNC1=O (stereo unspecified)
    /	-4%	0.5%	/

The list goes on.
Values run as follows: GLA inh pH 4.5	Rango dissoc inh	Rango complex inh	miR-21 reporter
> O=C(/C=C/c1ccc2ccccc2c1)c1ccoc1
    -20	-6%	-1.6%	-15%
> Cc1ccc(SCc2cc(=O)[nH]c(N3CCN(C)CC3)n2)cc1
    -2	-2%	3.3%	-1%
> CC(=O)c1ccc(OCC(=O)N2CCN(S(=O)(=O)c3ccc(Br)s3)CC2)cc1
    /	-3%	0.7%	/
> CCCC(=O)Nc1nc2c(c(=O)[nH]1)CCCC2
    9	12%	3.4%	3%
> CN(C(=O)c1cc(-n2cnnc2)ccc1Cl)c1ccccc1
    -5	-13%	-2.2%	-38%
> C=CCOc1ccccc1CN1CCSCC1
    -6	-1%	0.7%	-5%
> O=C1c2ccccc2NC(c2ccccc2Cl)N1N=C1CCCCCC1 (stereo unspecified)
    -10	-6%	-2.0%	-59%
> O=C(CC1CC2CCC1C2)N1CCN(S(=O)(=O)c2ccccc2F)CC1 (stereo unspecified)
    /	-16%	0.6%	/
> NC(=S)N=Nc1c(O)[nH]c2ccccc12
    -2	4%	3.8%	-3%
> N/C(=N/O)c1nc(N2CCCC2)nc(N(c2ccccc2)c2ccccc2)n1
    -9	1%	0.5%	4%
> CCC(=O)Nc1cc(-c2nn(CC(=O)N3CCCCC3)c(=O)c3ccccc23)ccc1N1CCOCC1
    1	1%	-2.3%	5%
> CN(CC(=O)NC1CCN(Cc2ccccc2)CC1)S(=O)(=O)c1ccc(Cl)s1
    /	-11%	-0.3%	/
> COc1ccc(NC(=O)NCc2cccn2C)c(OC)c1
    -8	0%	-0.7%	-2%
> CC1=CC(=C(C#N)C#N)C=C(C)N1CCN1CCNCC1
    -2	-22%	-1.8%	-2%
> Clc1cccc(Cl)c1Cn1cnc2c(NCc3ccco3)ncnc21
    2	-4%	1.1%	-3%
> c1csc(CNCCCN2CCOCC2)c1
    -4	0%	0.1%	-1%
> On1c2c(c3c4nonc4ccc31)CCCC2
    -1	/	/	-5%
> C[C@@H]1CN([C@@H](C)CO)C(=O)c2cccc(NS(C)(=O)=O)c2O[C@H]1CN(C)Cc1ccc(C(=O)O)cc1
    /	30%	5.3%	/
> CC(O)CNc1ccc([N+](=O)[O-])cc1S(=O)(=O)N1CCOCC1 (stereo unspecified)
    -6	-7%	-2.9%	5%
> Cc1ccc(C(=O)NCc2ccccc2CN2CCCC2)cc1S(=O)(=O)N1CCOCC1
    /	-8%	0.3%	/

Filtered by structure: the entries above containing a CF3 group.
Values run as follows: GLA inh pH 4.5	Rango dissoc inh	Rango complex inh	miR-21 reporter
> NS(=O)(=O)c1ccc(NC(=O)COC(=O)COc2cccc(C(F)(F)F)c2)cc1
    -6	6%	1.5%	-7%
> CC(=O)c1c[nH]c(C(=O)NCc2cccc(C(F)(F)F)c2)c1
    /	9%	-0.6%	0%

Next compounds.
Values run as follows: GLA inh pH 4.5	Rango dissoc inh	Rango complex inh	miR-21 reporter
> Cc1ccc(C)c(OCc2cc(C(=O)N3CCNC(=O)C3)no2)c1
    /	0%	2.7%	-18%
> CCCCN(C(C)=O)c1ccc(S(=O)(=O)NC2=NCCCCC2)cc1NC(C)=O
    /	-16%	2.9%	/
> COc1ccc(CCNC(=O)C2CC(=O)N(c3ccc(F)cc3)C2)cc1OC (stereo unspecified)
    -6	-7%	-2.1%	-1%
> O=C(Nn1c(-c2ccccc2)nc2ccccc2c1=O)C1CCC1
    -6	2%	1.3%	-6%
> COCCn1c(-c2ccccc2)nc(=S)c2c1CC(C)(C)OC2
    0	4%	3.5%	-5%
> O=C(c1ccco1)N1CCN(Cc2nc3cc(Cl)ccc3c(=O)[nH]2)CC1
    0	-12%	?	0%
> O=C(CN1CCN(c2ccccn2)CC1)Nc1cc(F)ccc1F
    /	27%	4.1%	-6%
> N=c1ncn(Cc2ccccc2)c2nc(SCCOc3ccccc3)[nH]c12
    -12	0%	-2.9%	-19%
> CC(C)N1C(=O)CCC1C(=O)N1CCCc2ccccc21 (stereo unspecified)
    3	4%	0.0%	-2%
> CCn1c2ccccc2c2cc(NC(=O)COC(=O)c3cc(S(N)(=O)=O)c(Cl)cc3Cl)ccc21
    2	28%	-1.0%	-24%
> CN(C)S(=O)(=O)c1cccc(NC(=O)c2cccc(N3C(=O)CCC3=O)c2)c1
    /	-5%	0.6%	/
> Cc1sc(NC(=O)CN(CCc2ccccc2)C(=O)C2CC2)c(C(N)=O)c1C
    2	-4%	0.4%	-1%
> CCOc1ccc(OCC(=O)c2c(O)c3ccccc3oc2=O)cc1
    9	-1%	-1.6%	-12%
> Cc1ccc(/C=C2\SC(=S)N(CCC(=O)NNS(=O)(=O)c3ccc(C)cc3)C2=O)cc1
    0	-3%	-5.2%	2%
